KAT2A inh: qHTS Assay for Inhibitors of GCN5L2; GCN5L2 HAT assay, ThioGlo1 CoA-SH fluorescence; Potency, µM (titrated, usually from 58.9 µM), for the others: at the highest dose activity change, negative = inhibition, usual class: inhibitors; hit rate 0.21% among 390,000; active means well fitted inhibition curve with a large enough effect; inconclusive means small, poorly fitted or top-dose-only effect, or another doubt; inactive means no such curve, though single readings can be large or run the other way
Target sequence (Q92830 whole entry, looked up): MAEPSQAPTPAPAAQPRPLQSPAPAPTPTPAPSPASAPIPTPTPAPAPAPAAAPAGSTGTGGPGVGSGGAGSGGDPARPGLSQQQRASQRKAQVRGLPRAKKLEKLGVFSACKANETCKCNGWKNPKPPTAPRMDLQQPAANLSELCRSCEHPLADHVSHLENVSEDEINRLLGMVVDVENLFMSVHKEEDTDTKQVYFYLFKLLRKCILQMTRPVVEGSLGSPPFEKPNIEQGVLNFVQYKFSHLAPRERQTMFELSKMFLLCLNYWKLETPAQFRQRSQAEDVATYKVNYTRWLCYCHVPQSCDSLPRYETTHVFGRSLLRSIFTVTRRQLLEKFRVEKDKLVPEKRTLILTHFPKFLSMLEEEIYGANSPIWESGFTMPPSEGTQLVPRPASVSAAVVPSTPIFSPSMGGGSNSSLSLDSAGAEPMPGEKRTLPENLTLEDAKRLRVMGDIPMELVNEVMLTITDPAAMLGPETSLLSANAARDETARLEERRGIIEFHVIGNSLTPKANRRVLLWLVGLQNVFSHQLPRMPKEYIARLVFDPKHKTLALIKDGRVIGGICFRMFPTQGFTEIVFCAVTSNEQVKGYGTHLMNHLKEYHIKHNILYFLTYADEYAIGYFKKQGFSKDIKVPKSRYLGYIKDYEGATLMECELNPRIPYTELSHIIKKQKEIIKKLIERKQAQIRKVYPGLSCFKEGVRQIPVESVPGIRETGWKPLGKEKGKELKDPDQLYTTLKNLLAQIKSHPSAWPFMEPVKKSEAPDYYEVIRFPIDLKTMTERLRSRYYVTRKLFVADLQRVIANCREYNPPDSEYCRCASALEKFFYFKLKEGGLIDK
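Enzyme at 20nM final was mixed with library compounds for 15 min at room temperature. Peptide H3(1-25) at 75uM, acetyl-CoA at 70uM and ThioGlo1 at 50uM were then added. Plates were read immediately and after 20 min (Ex340nm/Em540nm).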
The depositor's hits bear a star; ? = inconclusive; & = joins results of further samples. On the % scale 0 is the no-effect control and ±100 the full control effect; potency means the concentration at half of the fitted maximal effect. The list is partial, and most or all hits are left out here.

| smiles | KAT2A inh |
| --- | --- |
| O=C(NCC1CCCO1)c1ccccc1NS(=O)(=O)c1cccc([N+](=O)[O-])c1 (stereo unspecified) | -3% |
| CCOC(=O)c1c(C)[nH]c(C)c1C(=O)COC(=O)c1ccc(O)cc1 | 2% |
| COc1cccc(C(=O)N/N=C(/c2ccccc2)c2ccccn2)c1 | -5% |
| Cn1c(NC(=O)c2ccc(Cl)cc2)cc(=O)n(C)c1=O | -6% |
| O=C(CCn1nc(-c2ccc(Cl)cc2)ccc1=O)N1CCN(c2ccccn2)CC1 | -1% |
| CCOc1ccc(NC2=CC(=O)CC(c3ccco3)C2)cc1 (stereo unspecified) | 0% |
| Cc1ccccc1NC(=O)CCSc1nnnn1-c1ccccc1 | 1% |
| CCOC(=O)C(C)/C(C)=N/NC(=O)c1cc2ccccc2cc1O (stereo unspecified) | 3% |
| N/C(=N\OC(=O)Cc1ccccc1[N+](=O)[O-])c1ccc(Br)cc1 | -7% |
| Cc1cc(NC(=O)CCn2c(=O)c3cccn3c3cccnc32)ccc1Br | -3% |
| CCOC(=O)c1ccc(N/C(=N/S(=O)(=O)c2ccccc2)c2ccccc2)cc1 | -3% |
| CCOc1ccc2nc(SCC(=O)Nc3cc4c(cc3C(C)=O)OCO4)[nH]c2c1 | -21% |
| CCOC(=O)c1c(C)nc2c(c1-c1ccc(Cl)cc1)C(=O)CC(C)(C)C2 | -12% |
| Cc1noc(NS(=O)(=O)c2ccc(N/C=C/C(=O)c3cccnc3)cc2)c1C | -8% |
| COc1ccc(C(=O)N2CCC(c3nc4ccccc4o3)CC2)cc1 | -4% |

Ordered by number of heavy atoms (smallest number first): some entries from above.
| smiles | KAT2A inh |
| --- | --- |
| CCOc1ccc(NC2=CC(=O)CC(c3ccco3)C2)cc1 (stereo unspecified) | 0% |
| Cc1ccccc1NC(=O)CCSc1nnnn1-c1ccccc1 | 1% |
| COc1ccc(C(=O)N2CCC(c3nc4ccccc4o3)CC2)cc1 | -4% |

Additional entries follow:
| smiles | KAT2A inh |
| --- | --- |
| Cc1ccc(S(=O)(=O)N(CC(=O)Nc2cccnc2)c2ccccc2C)cc1 | -7% |
| CCOC(=O)CC[C@H](NC(=O)Cn1cnc2c(SC)nc(N)nc21)C(=O)OCC | 0% |
| COc1ccccc1N1CCN(/N=C/C=C\c2ccccc2[N+](=O)[O-])CC1 | -11% |
| CCCCn1c(N)c(N(Cc2ccccc2OC)C(=O)COc2ccccc2OC)c(=O)[nH]c1=O | -13% |
| Cc1cccc(N2CCN(C(=O)Cn3c(-c4cccs4)cc4ccccc43)CC2)c1C | -12% |
| CCN1CCCC1CNC(=O)C(=O)Nc1ccc(OC)cc1 (stereo unspecified) | -3% |
| COc1cc(/C=N/NC(=O)c2ccc(N(C)S(=O)(=O)c3ccccc3)cc2)cc(OC)c1OC | -18% |
| Cc1ccc(CNC(=O)C(=O)NCC2OCCCN2S(=O)(=O)c2cccs2)cc1 (stereo unspecified) | -7% |
| COc1ccc(OC(=O)c2cccc(S(=O)(=O)N3CC(C)OC(C)C3)c2)cc1 (stereo unspecified) | 0% |
| CCOC(=O)CSc1nnc2n(Cc3ccccc3)c(=O)c3c4c(sc3n12)CCC4 | -5% |
| Cc1cc2oc(=O)cc(C)c2cc1NC(=O)CCl | 1% |
| COc1ccc(CCNC(=O)c2c(C)nn(CC(C)C)c2Cl)cc1 | 2% |
| COc1cc(/C=N/NC(=O)c2cccnc2)ccc1OCC(=O)Nc1c(C)cc(C)cc1C | -8% |
| Cc1cc(NC(=O)CN2C(=O)NC(C)(c3ccc(Cl)cc3Cl)C2=O)no1 (stereo unspecified) | -5% |
| Cc1ccc(S(=O)(=O)NC(=O)COc2ccc(Cl)cc2Cl)cc1 | -5% |
| CC(C)(C)OC(=O)C[C@@H]1C/C=C\C[C@@H](CC(=O)NCCO)C(=O)N[C@H](Cc2ccccc2)COC1=O | -1% |
| C=CCN(CC=C)S(=O)(=O)c1ccc(NC(=O)COc2ccccc2OC)cc1 | -5% |
| CCOC(=O)C1(S(=O)(=O)c2ccccc2)CCN(Cc2ccccc2)CC1 | -8% |
| CC(C)Oc1ccc(C2CC(=O)NC3=C2C(=O)CCC3)cc1 (stereo unspecified) | 30% |
| CCN(CC)C(=S)Nc1ccc2nc3n(c(=O)c2c1)CCCCC3 | 4% |
| C=CC[C@H](CC(=O)NCCO)C(=O)N[C@@H](COC(=O)[C@H](CC=C)CC(=O)OC(C)(C)C)Cc1c[nH]c2ccccc12 | 0% |
| CCC(C)NC(=O)CN(c1cc(Cl)cc(Cl)c1)S(C)(=O)=O (stereo unspecified) | -8% |
| CCCCCCCCCCCCOS(=O)(=O)O | ? |
| CCCNC(=O)c1ccc(COc2cccc3ccccc23)o1 | -1% |
| Cc1ccc(NC(=O)C2CCN(S(=O)(=O)c3cc(-c4noc(C)n4)ccc3C)CC2)c(C)c1 | -10% |
| CCN(CC)c1ccc(CNC23CN4CN(CN(C4)C2)C3)cc1 | -6% |
| CCOC(=O)N/N=C(/C)c1ccc(N2C(=O)C3CCCCC3C2=O)cc1 (stereo unspecified) | 0% |
| CC(C)c1ccc(C(=O)Nc2cccc3cccnc23)cc1 | -4% |
| COc1ccc(-c2ccc(SCC(=O)NC3CCCCC3)nn2)cc1 | -2% |
| COc1ccc(CC(=O)Nn2c(-c3ccccc3)nc3ccccc3c2=O)cc1 | 3% |
| CCOC(=O)[C@H]1[C@H]2COc3ccc(C)cc3[C@@H]2N2C(=O)CN(CC3CCCO3)C(=O)[C@@]12C (stereo partly specified) | -7% |
| O=C(NC1CCCCC1)c1ccc2c(c1)N(Cc1cccc(Cl)c1)C(=O)c1ccccc1S2(=O)=O | -5% |
| O=C(CCC(=O)c1cccs1)OCc1nc2ccccc2s1 | -6% |
| O=C(O)CCC(=O)C(=O)O | 12% |
| CC(=O)c1cc(NC(=O)c2ccccc2)c(=O)oc1/C=C/N(C)C | -10% |
| COc1ccc(/C=C/C(=O)NC(=S)NNC(=O)[C@H]2C[C@@H]2c2ccccc2)cc1OC | -6% |
| Cc1nc2c(cc(Oc3ccc(S(=O)(=O)N4CCOCC4)cn3)c3ccsc32)s1 | -11% |
| COC(=O)N/N=C/c1ccc(OCCSc2ccc(Cl)cc2)c(OC)c1 | -3% |
| COCCCNC(=S)NNC(=O)c1csc2ccccc12 | -1% |
| CC1CCCC(C)N1C(=O)c1cc(F)c(F)cc1Cl (stereo unspecified) | 0% |
| CC(=O)N1CC(C)Sc2ccc(S(=O)(=O)NC3CCCCC3)cc21 (stereo unspecified) | -3% |
| NS(=O)(=O)c1ccc(NC(=S)NC(=O)c2cccc(Br)c2)cc1 | -3% |
| CN(C)S(=O)(=O)c1cccc2nsnc12 | 1% |
| CC(=O)N1CCC(C(=O)Nc2nc(-c3ccccc3)ns2)CC1 | -11% |
| COC(=O)N1[C@H](Cc2ccccc2)C=C[C@]1(C)C(=O)O | -1% |

No new results follow: an excerpt of the list.
| smiles | KAT2A inh |
| --- | --- |
| O=C(CCC(=O)c1cccs1)OCc1nc2ccccc2s1 | -6% |
| O=C(O)CCC(=O)C(=O)O | 12% |

Further compounds follow:
| smiles | KAT2A inh |
| --- | --- |
| Cc1ccccc1-c1nnc(CS(=O)(=O)c2ccccc2)o1 | 0% |
| Cc1ccc(C(=O)NCCSc2ccc(Cl)cc2)cc1[N+](=O)[O-] | -7% |
| CC1=NC(C(F)(F)F)(C(F)(F)F)C2=C(CC(C)(C)CC2=O)N1Cc1ccco1 | -2% |
| CCOC(=O)CCc1c(C)nc2cc(-c3ccc(F)cc3)[nH]n2c1=O | -1% |
| CCCCn1c(N)c(N(CC(C)C)C(=O)c2cc(-c3ccncc3)nc3ccccc23)c(=O)[nH]c1=O | -5% |
| CCCCn1nc(C(=O)NCC2COc3ccccc3O2)c2ccccc2c1=O (stereo unspecified) | -6% |
| Cc1sc2ncn(CC(=O)NCCCC(=O)N3CCN(c4ccccc4F)CC3)c(=O)c2c1C | -4% |
| Cc1cc(C(C)(C)C)ccc1OC(=O)C1=CC=CN2CCS(=O)(=O)N=C12 | -19% |
| CCOC(=O)c1cc(CNC(=O)c2c(C)oc3c2CCCC3)c(C)o1 | 6% |
| COCCCNC(=O)CSC1=Nc2ccccc2C2=NC(c3ccccc3)C(=O)N12 (stereo unspecified) | -3% |
| COc1ccc(CCn2c(C)cc(C(=O)COC(=O)c3ccc(NC(=O)CC#N)cc3)c2C)cc1 | -24% |
| CCCSc1nnc(-c2ccccc2NC(=O)CC)c(=O)[nH]1 | -1% |
| CCC(C(=O)NCc1ccco1)n1nc(C)c2c(C)n(-c3ccc(C)cc3)nc2c1=O (stereo unspecified) | -8%&0% |
| CCc1ccc(N2Cc3ccccc3C2)cc1 | -6% |
| Cc1ccnc(SC2CC(=O)N(c3ccc(F)cc3)C2=O)n1 (stereo unspecified) | ? |
| COc1ccc(-c2nc(S(=O)(=O)c3ccc(Cl)cc3)c(N3CCCCCC3)o2)cc1 | -8% |
| O=C(CCN1C(=O)S/C(=C/c2ccccc2)C1=O)Nc1ccc(O)c(C(=O)O)c1 | -5% |
| COc1ccc(C)cc1Cn1nnc2ccccc21 | 1% |
| Cc1ccc(Cl)cc1NC(=O)CN1C(=O)CSc2ccc(S(=O)(=O)N3CCCC3)cc21 | -5% |
| O=C(CCC(=O)Nc1ccccc1)NNS(=O)(=O)c1ccccc1[N+](=O)[O-] | 0% |
| CCOc1ccc(OCc2ccc(C(=O)N3CCCC(C)C3)cc2)cc1 (stereo unspecified) | -9% |
| COc1ccc2cc(C(c3nnnn3C3CCCC3)N3CCCCCC3)c3nnnn3c2c1 (stereo unspecified) | 7% |
| Cc1cc(C)cc(NC(=O)C(=O)NCC(c2ccc3c(c2)OCO3)N2CCN(C)CC2)c1 (stereo unspecified) | 3% |
| CCOC(=O)c1sc(/N=C/Nc2nc(C)c(C(=O)OCC)s2)nc1C | -1% |
| CC1CN(C(=O)c2ccc(-c3ccccc3Cl)o2)CC(C)O1 (stereo unspecified) | -1% |
| CCO[C@H]1OC(C(=O)N2CCN(Cc3ccc4c(c3)OCO4)CC2)=C[C@@H](c2ccc(Br)cc2)[C@@H]1CCCO | -3% |
| CC(=O)N1c2ccccc2NC2=C(C(=O)CCC2)C1c1ccc(F)cc1 (stereo unspecified) | -3% |
| Cc1ccc(S(=O)(=O)N2CCN(C(=O)Cc3ccsc3)CC2)c(C)c1 | -2% |
| O=C(Cn1nnc(-c2ccccc2)n1)NNC(=O)c1ccc(Br)cc1 | -5% |
| Cc1ccc([N+](=O)[O-])c(OCCCNCC(C)O)c1 (stereo unspecified) | -14% |

Brought forward from above: 3 compounds; new compounds follow.
| smiles | KAT2A inh |
| --- | --- |
| Cc1ccc(S(=O)(=O)N2CCN(C(=O)Cc3ccsc3)CC2)c(C)c1 | -2% |
| O=C(Cn1nnc(-c2ccccc2)n1)NNC(=O)c1ccc(Br)cc1 | -5% |
| Cc1ccc([N+](=O)[O-])c(OCCCNCC(C)O)c1 (stereo unspecified) | -14% |
| COc1ccccc1OCc1ccc(C(=O)NCC2CCCO2)cc1 (stereo unspecified) | 2% |
| CC(C)(C)c1cc(C(=O)NCc2cccnc2)ccn1 | 1% |
| O=C(Nc1cccc(F)c1)c1ccc(S(=O)(=O)N2CCOCC2)cc1 | -2% |
| CC(=O)C1=C(O)C(=O)N(c2cccc(C(=O)O)c2)C1c1ccccc1F (stereo unspecified) | 4% |
| O=C(Nc1cccc(C(F)(F)F)c1)C1=CC=CN2CCS(=O)(=O)N=C12 | 2% |
| CN(C)c1ccc(NC(=O)CSc2nc3ccccc3c(=O)n2CC2CCCO2)cc1 (stereo unspecified) | -4% |
| CCOC(=O)N1CCN(C(=O)Cc2c(C(=O)O)n(C)c3ccccc23)CC1 | -6% |
| COc1cccc(/C=C/C(=O)OCC(=O)N2CCN(S(=O)(=O)c3ccc(Cl)cc3)CC2)c1 | -4% |
| O=C(NOCc1ccccc1)c1ccccc1 | -1%&-5% |
| CC1CCCC(NC(=O)Cn2cc(C(F)(F)F)cc(Cl)c2=O)C1C (stereo unspecified) | 2% |
| COc1ccc(-n2nc3c(N4CCC(C(=O)NCc5cccc(C)c5)CC4)nnc(C)c3c2C)cc1 | -2% |
| O=C(Nc1ccc(Br)c(C(F)(F)F)c1)c1ccc(C(F)(F)F)cc1 | -8% |
| OC(CCN1CCCCC1)(c1ccccc1)C1CCCCC1 (stereo unspecified) | -19%&-6%&11% |
| CCN(CCCNC(=O)C1CCN(S(=O)(=O)c2cccc3nonc23)CC1)Cc1ccccc1 | -10% |
| CCCNC(=O)Cn1cc(S(=O)(=O)N2CCCC2)c(S(=O)(=O)N2CCCC2)c1 | 1% |
| Cc1ccc2nc(-c3ccccc3Cl)cc(C(=O)Nc3cc(C)on3)c2c1 | -13% |
| O=C(O)COc1ccccc1/C=N/NC(=O)CNC(=O)c1ccco1 | -2% |
| COc1ccc(CNC(=O)c2ccc3c(c2)N(C)C(=O)C2CCCCN32)cc1OC (stereo unspecified) | -3% |
| COc1ccc(-c2cn3c(n2)sc2cc(C(=O)Nc4ccc(F)cc4)ccc23)cc1 | -20% |
| O=C(N/N=C1/CCCc2ccccc21)C(c1ccccc1)c1ccccc1 | 0% |
| O=C(N/N=C/C=C/c1ccccc1[N+](=O)[O-])c1cccnc1 | -2% |
| COc1ccc(N2C(=O)C(CC(=O)Nc3ccc(F)cc3)N(Cc3ccc4c(c3)OCO4)C2=O)cc1 (stereo unspecified) | -5% |
| CC(C)CCN(C(=O)c1cn2ccccc2n1)c1c(N)n(Cc2ccccc2)c(=O)[nH]c1=O | -7% |
| COc1ccc(-c2nc(CNC(=O)Nc3ccccc3)c(C)o2)cc1 | -3% |
| COc1ccc(N(CC(=O)N2CCc3ccccc3C2)S(C)(=O)=O)cc1OC | -1% |
| CNC(=O)COc1coc(CN2CCN(c3ccc(OC)cc3)CC2)cc1=O | ? |
| CC(C)CCN1CCN(Cc2nc3ccccc3s2)CC1CCO (stereo unspecified) | 0% |
| COc1cc(C(C)=O)ccc1OC(C)C(=O)Nc1ccc(S(=O)(=O)N2CCCC2)cc1 (stereo unspecified) | 1% |

Screening data from PubChem BioAssay.
